AmpC nodet inh: Promiscuous and Specific Inhibitors of AmpC Beta-Lactamase (assay without detergent). AID 585, 2007. Potency, µM (titrated, usually from 28.7 µM), inactives show at the highest dose activity change, negative = inhibition. P00811. 71,000 compounds, 1.8% hits. AmpC nitrocefin hydrolysis, absorbance 480 nm, no detergent; potencies from a single point are estimates; active = falling curve, for most hits resting on a single point; inconclusive = weak or doubtful change; inactive = flat or rising curve; note: % of control where 0% means no effect; about half of the hits show no inhibition at the top dose; a quarter of the inactives give rising signals
Target sequence (P00811 whole entry, looked up): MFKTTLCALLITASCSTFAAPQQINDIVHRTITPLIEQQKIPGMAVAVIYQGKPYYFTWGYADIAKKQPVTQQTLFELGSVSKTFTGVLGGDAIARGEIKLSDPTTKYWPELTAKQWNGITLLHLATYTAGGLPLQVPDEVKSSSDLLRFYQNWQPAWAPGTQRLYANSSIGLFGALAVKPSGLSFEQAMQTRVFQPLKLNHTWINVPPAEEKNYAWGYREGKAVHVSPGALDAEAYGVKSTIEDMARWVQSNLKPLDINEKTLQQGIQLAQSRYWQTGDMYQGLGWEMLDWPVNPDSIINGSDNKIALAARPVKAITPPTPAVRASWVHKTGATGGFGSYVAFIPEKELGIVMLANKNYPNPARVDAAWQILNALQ
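AmpC, 20 mM phosphate pH 7.0; 15 min cpd preinc, RT; start with nitrocefin (800 uM stock); A480 kinetic read, 20 s intervals, 4 min. No-enzyme wells = negative control.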
* hit, by the source's call; u = inconclusive; & = joins results of further samples; [ ] = dose if it differs, or a comment. Potency is the fitted concentration of half-maximal effect.

SMILES | AmpC nodet inh
CSc1nccn1CC(=O)Nc1ccc(F)cc1 | -8%
CCNC(=O)CC1C(=O)N(c2cccc(OC)c2)C(=O)N1CCOC (stereo not drawn) | 2%
COc1ccc(OC)c(S(=O)(=O)N2CCC(C(=O)Nc3cccc(C)c3C)CC2)c1 | 34%
Cc1csc(SCC(=O)Nc2ccc(Cl)cn2)n1 | -8%
O=C(O)NCC1CCCCC1 (tested in a mixture with another compound) | 4%[5.75 µM]
CCP(=O)(c1ccccc1)C(C)(C)O (stereo not drawn) | -10%
Oc1ccccc1C1=Nc2ncnn2C(c2ccc(F)cc2)C1 (stereo not drawn) | -2%
CC(=O)N[C@@H](CC(=O)O)C(=O)O | -4%[12.8 µM]
CC1SC(c2cccc(Cl)c2)NC1=O (stereo not drawn) | -3%
Cc1cccc2sc(NC(=O)CCNS(=O)(=O)c3cccc4nonc34)nc12 | -6%
COc1ccc(NC(=O)Cn2nnc(-c3ccccc3NC(=O)c3cccs3)n2)cc1 | -25%
CC1(C)OC(=O)C(=CNCC(=O)NCC(=O)O)C(=O)O1 | -8%
CC(=O)c1ccc2c(c1)N(CCCN1CCC(CCO)CC1)c1ccccc1S2 | 71%[12.8 µM]
CCCCC(=O)NCCc1cc2c(OC)ccc(OC)c2[nH]c1=O | 16%
CCOc1ccc(S(=O)(=O)N2CCN(c3ccc(C)cc3C)CC2)cc1 | -8%

Some values from above:
CC(=O)N[C@@H](CC(=O)O)C(=O)O @ AmpC nodet inh: -4%[12.8 µM]
CCOc1ccc(S(=O)(=O)N2CCN(c3ccc(C)cc3C)CC2)cc1 @ AmpC nodet inh: -8%
CCCCC(=O)NCCc1cc2c(OC)ccc(OC)c2[nH]c1=O @ AmpC nodet inh: 16%
CC1SC(c2cccc(Cl)c2)NC1=O (stereo not drawn) @ AmpC nodet inh: -3%

Later entries.
SMILES | AmpC nodet inh
O=S(=O)(NCC1CCCO1)c1cccc(C(F)(F)F)c1 (stereo not drawn) | 2%
CC(=O)c1c(C)n(C)c2ccc(OC(=O)c3ccco3)cc12 | 30%
N#CCCC12CCCCC1=Nc1ccccc12 (stereo not drawn) | -3%
CCOCCn1c(CN2CCN(c3ccccc3)CC2)nc2c1c(=O)n(C)c(=O)n2C | 111%
CCN(CC)c1nc2ccccc2nc1C(C#N)C(=O)NCCc1ccccc1 (stereo not drawn) | -5%
COc1cccc(NC(=O)Nc2cc(C)ccc2F)c1 | u
CCOc1ccc(NC(=O)C(CC)NC(=O)c2ccccc2CO)cc1 (stereo not drawn) | 9%
Cn1ncc(Br)c1C(=O)Nc1ccc(Cl)cn1 | 0%
CCOc1cc(N2CCOCC2)c(OCC)cc1NC(=O)CSc1cccc[n+]1[O-] | -15%
CN(C)c1ncnc2ccc(-c3cccnc3)cc12 | 8%
CCn1c(SCC(=O)Nc2nc3ccc(C)cc3s2)nc2c(c1=O)SC(C)C2 (stereo not drawn) | -9%
COc1ccc(OC)c(NC(=O)c2nnn(Cc3ccc(Br)cc3F)c2N)c1 | 3.2µM*[single pt active]
COc1ccc(Oc2nc(Oc3ccc(OC)cc3)nc(Oc3ccc(OC)cc3)n2)cc1 | -22%
COc1ccc(-n2nc(C(=O)NCc3ccco3)c3c4ccccc4n(C)c3c2=O)cc1Cl | 21%
CC(C)[C@@H](C(=O)NCC1CCC(C(=O)O)CC1)n1nnc2ccccc2c1=O (stereo partly drawn) | 7%

By substructure, those above containing sulfur
SMILES | AmpC nodet inh
CSc1nccn1CC(=O)Nc1ccc(F)cc1 | -8%
COc1ccc(OC)c(S(=O)(=O)N2CCC(C(=O)Nc3cccc(C)c3C)CC2)c1 | 34%
Cc1csc(SCC(=O)Nc2ccc(Cl)cn2)n1 | -8%
CC1SC(c2cccc(Cl)c2)NC1=O (stereo not drawn) | -3%
Cc1cccc2sc(NC(=O)CCNS(=O)(=O)c3cccc4nonc34)nc12 | -6%
COc1ccc(NC(=O)Cn2nnc(-c3ccccc3NC(=O)c3cccs3)n2)cc1 | -25%
CC(=O)c1ccc2c(c1)N(CCCN1CCC(CCO)CC1)c1ccccc1S2 | 71%[12.8 µM]
CCOc1ccc(S(=O)(=O)N2CCN(c3ccc(C)cc3C)CC2)cc1 | -8%
O=S(=O)(NCC1CCCO1)c1cccc(C(F)(F)F)c1 (stereo not drawn) | 2%
CCOc1cc(N2CCOCC2)c(OCC)cc1NC(=O)CSc1cccc[n+]1[O-] | -15%
CCn1c(SCC(=O)Nc2nc3ccc(C)cc3s2)nc2c(c1=O)SC(C)C2 (stereo not drawn) | -9%

(continued)
SMILES | AmpC nodet inh
C/C=C/c1ccc(OCCn2cncn2)c(OC)c1 | 12%
C=CCn1c(=N)n(CC(O)c2ccco2)c2ccccc21 (stereo not drawn) | 15%
COC(=O)[C@@]1(Cc2ccc(F)cc2)[C@H]2c3cc(C(=O)N(C)C)n(C)c3C[C@H]2CN1C(=O)c1ccccc1 | 176%
CCOC(=O)c1[nH]c2ccccc2c1NC(=O)CN1CCCCC1 | -4%
O=C(Cn1nnc2c(cnn2-c2ccc(F)cc2)c1=O)OC1CCCCC1 | 17%
CCCCOc1ccccc1NC(=O)CC1SC(=NCC)N(CC)C1=O (stereo not drawn) | 21%
CO[C@@H](C)[C@](O)(C(=O)OC1=CCN2CC[C@H](O)[C@H]12)C(C)C | -3%
CN(Cc1ccco1)c1ncnc2ccc(-c3cccnc3)cc12 | -4%
Cn1cnnc1Sc1nc2ccccc2nc1NS(=O)(=O)c1ccccc1 | -16%
Cc1[nH]c2ccccc2c1C(=O)COC(=O)C1CCC(=O)N1 (stereo not drawn) | 1%
O=C(CSc1nnc(-c2ccc(F)cc2)o1)N1CCN(C(=O)c2ccco2)CC1 | 41%
CCOC(=O)c1ccc(OCC(=O)c2ccc(O)cc2O)cc1 | -16%
COC(=O)[C@@H]1C[C@H]1[C@@H](NC(=O)c1cccnc1)c1ccccc1 | 8%
Cc1cc(C(=O)CSc2nnc(Nc3ccccc3F)s2)c(C)n1CC1CCCO1 (stereo not drawn) | -1%
O=C(CN1C(=O)CCC1=O)Nc1nc(-c2ccc(Cl)s2)cs1 | 18%
Cc1ccc(N2CCN(CCc3nc4cc(NC(=O)c5ccco5)ccc4n3C)CC2)cc1 | 80%
Cc1ccc(NC(=O)C(C)Sc2nnc(-c3cccnc3)o2)cc1 (stereo not drawn) | -3%
CN1CCN(c2nc(Nc3cccc(C(F)(F)F)c3)nc(N3CCOCC3)n2)CC1 | 101%
COc1cc2c(C#N)c(N3CCN(c4ccccc4OC)CC3)nc(N)c2c(N)n1 | 104%
CCOC(=O)CSc1nnc(CNC(=O)c2cccs2)n1Cc1ccccc1 | 38%
CCOC(=O)c1sc2ncnc(N3CCN(C(=O)OCC)CC3)c2c1C | 103%
CC(C)OCCCNC(=O)CCN1C(=O)COc2ccccc21 | -6%
O=S(=O)(c1ccccc1)c1cccc(S(=O)(=O)N2CCCCC2)c1 | 3%
CC(C)(Sc1ccc(CCN(CCCCC2CCCCC2)C(=O)NC2CCCCC2)cc1)C(=O)O | 22%&16%
COc1ccc(C2C(C(=O)Nc3ccccn3)=C(C)Nc3ncnn32)c(OC)c1 (stereo not drawn) | 8%
CCn1nnnc1Oc1ccc(Cl)cc1 | -3%
CCn1c(SCC(=O)c2ccc(OC)cc2)nnc1C(C)NC(=O)c1ccc(OC)cc1 (stereo not drawn) | 48%
O=C(NCCCn1ccnc1)c1noc2c1CCc1ccccc1-2 | 24%
COc1cc(C(=O)OCC(=O)N(C)Cc2ccccc2)cc(OC)c1OC | 84%
COCCn1c(Sc2ccc(C)cc2)nc2c1c(=O)[nH]c(=O)n2C | -14%

2 of the compounds above, field by field.
Structure: COc1cc(C(=O)OCC(=O)N(C)Cc2ccccc2)cc(OC)c1OC
- AmpC nodet inh: 84%

Structure: CC(C)OCCCNC(=O)CCN1C(=O)COc2ccccc21
- AmpC nodet inh: -6%

Continued:
SMILES | AmpC nodet inh
CSc1nc2c(c(-c3ccc(O)cc3)c1C#N)CCC2 | u
O=C(Cc1cc(=O)[nH]c(=O)[nH]1)NCC1CCCO1 (stereo not drawn) | 71%
Cc1cc(C)nc(SCC(=O)OCN2C(=O)c3ccccc3C2=O)n1 | 15%
CCOC(=O)c1c(NC(=O)COC(=O)c2c(C)noc2C)sc2c1CCC2 | 5%
COc1ccc(C(=O)N2CCCC2)cc1S(=O)(=O)N1CCOCC1 | 2%
O=C(Nc1ccccc1N1CCCCC1)c1cccc(F)c1 | 3%
Cc1ccccc1N(C)S(=O)(=O)c1ccc2[nH]cc(C(=O)NCC3CCCO3)c(=O)c2c1 (stereo not drawn) | 124%
CCOc1cc(N2CCOCC2)c(OCC)cc1NC(=O)c1nc2nc(C)cc(C)n2n1 | 110%
CCOC(=O)c1nnn(CC(=O)Nc2cc(F)ccc2F)c1C(=O)OCC | 12%
CCc1cc(=O)oc2cc(C)c3c(C)coc3c12 | -8%
BrC(Br)C(Br)Br | -14%
COC(=O)c1ccc(-n2nnnc2SCC(=O)NCc2cccc(C(=O)O)c2)cc1 | -11%
COC(=O)c1ccc(OC)c(CSc2nnc(COc3cccc(C)c3)o2)c1 | 22%
Cn1c(CNC(=O)Nc2ccccc2)nnc1SCc1ccccc1 | 9%
Fc1cc2nc(-c3ccncc3)[nH]c2cc1F | -3%
O=C(NCCc1ccccc1)c1ccc(=O)oc1 | -5%
Cc1nc(N2CCOCC2)c2nc(-c3ccccc3)n(CCCN(C)C)c2n1 | 30%
O=C1CCCC2=C1C(c1ccc3c(c1)OCO3)c1c([nH]n(-c3ccccc3)c1=O)N2 (stereo not drawn) | 4%
CC1CC(=O)c2cnc(Nc3cccc(C(F)(F)F)c3)nc2C1 (stereo not drawn) | 32%
CCOC(=O)c1ccccc1N1C(=O)CSC1=S | -2%
CCCN1CN(Cc2ccco2)c2nc3ccccc3n2C1 | 16%
COc1ccccc1NC(=O)CCN1CCCCCC1 | 3%
Cc1ccc(S(=O)(=O)N2CCCC2C(=O)OCC(=O)Nc2ccc3c(c2)OCO3)cc1 (stereo not drawn) | 26%
Br/C(=N\Nc1nn[nH]n1)c1ccncc1 | -4%[5.75 µM]
COC(=O)/C=c1\sc2ncnn2c1=O | -1%
CCN(C(=O)c1ccc(C(C)(C)C)cc1)c1nnc(Cn2nnc3ccccc32)s1 | 54%
O=c1cnc2cnc(Oc3ccccc3)nc2n1CCc1ccccc1 | 23%
CN1C(=O)C(C2(C#N)CCCCC2)C(=O)N(C)C1=O | -9%
Cc1cc(=O)n2c(-c3ccccc3C)n[nH]c2n1 | -7%
COc1ccc(C(=O)Nc2cccc(OC)c2)cc1 | 4%
Cc1ccc(S(=O)(=O)N2CC(=NO)C2)cc1 | -14%
CNC(=O)c1cc2ccc(OC)cc2oc1=O | -3%
Cc1csc2nc(CNC(=O)C3CC=CCC3C(=O)O)cn12 (stereo not drawn) | 5%
Cn1c(CSCc2ccc(F)cc2)nnc1SCC(=O)Nc1nccs1 | -3%
COc1ccc(C(=O)NCC(=O)OC2CCCCC2=O)cc1 (stereo not drawn) | -13%
Clc1ccc(OCc2nn3c(-c4ccccc4)nnc3s2)c(Cl)c1 | u
CCCS(=O)(=O)N1CCCC(C(=O)NCCCN2CCN(c3cccc(Cl)c3)CC2)C1 (stereo not drawn) | 126%
O=C(O)c1ccc(NS(=O)(=O)c2cccc3nsnc23)cc1 | -3%
COc1ccc(OC)c(S(=O)(=O)NCc2csc(-c3ccccc3)n2)c1 | 17%
CCOC(=O)N1CCN(S(=O)(=O)c2ccc3[nH]cc(C(=O)O)c(=O)c3c2)CC1 | -15%
c1coc(-c2nc3ccccc3nc2-c2ccco2)c1 | -9%
O=C(Cn1cnc2c(nnn2Cc2ccccc2)c1=O)NCC1CCCO1 (stereo not drawn) | 8%
Cc1noc(C)c1C(=O)N1CCC2(CCCN(c3ccccc3)C2)CC1 | 36%
CN(Cc1ccco1)c1ccnc(-c2cccc(NS(C)(=O)=O)c2)n1 | 51%
CCNc1ncc2nc(-c3ccc(Cl)cc3)c(=O)n(Cc3cccs3)c2n1 | 11%
COc1cccc(-n2c(=O)[nH]cc(C(=O)Nc3ccc4c(c3)OCCO4)c2=O)c1 | 6%
CCC(C)NC(=O)C1CCN(S(=O)(=O)c2cccc3cccnc23)CC1 (stereo not drawn) | 3%
COc1ccccc1N1CCN(CCN2C(=O)c3ccccc3C(C)(C)C2=O)CC1 | 98%
COc1cc2cc(CN(CCCO)S(=O)(=O)c3ccccc3Cl)c(=O)[nH]c2cc1OC | 77%
O=C(COC(=O)c1cccnc1)c1ccc(Cl)cc1 | -1%
O=C(NC1CCCCC1)C1CCCN1S(=O)(=O)c1cccc2nsnc12 (stereo not drawn) | 15%
CCCCOc1ccc(-c2ncc(Cl)cn2)cc1 | 4%
NS(=O)(=O)c1ccc(NS(=O)(=O)c2cccs2)cc1 | -2%
N#CCCCSc1nnc(-c2ccccn2)o1 | -9%
O=C(c1ccc(Cn2cc(Br)cn2)cc1)N1CCN(c2ccccc2)CC1 | 71%
CCOc1ccc2[nH]c(=O)c(=O)[nH]c2c1 | 6%
Nc1ccc(CCc2nc3ccccc3o2)cc1 | 0%
CC(C)C1=CC2=CC[C@H]3[C@@](C)(CCC[C@]3(C)C(=O)O)[C@@H]2CC1 | -8%
CN1C(=O)c2cccc3c(S(=O)(=O)Nc4ccccn4)ccc1c23 | 2%
O=C(c1cccnc1)N1CCc2ccccc2C1 | 7%
Further compounds follow.
SMILES | AmpC nodet inh
CC1=CC(=O)NP(=O)(Oc2ccc3ccccc3c2)N1 (stereo not drawn) | -13%
O=C(O)CN1C(=O)C2(OCCCO2)c2ccccc21 | -13%
CCOC(=O)c1cnc(SCC(=O)c2ccccc2)nc1N | 10%
CN(CC(=O)Nc1ccncc1)S(=O)(=O)c1ccc(Cl)cc1 | 0%
COC(=O)c1ccc(C(NC(=O)OCc2ccccc2)/C(=C/[C@@H](C)C(=O)NCCc2c[nH]c3ccccc23)c2cccnc2)cc1 (stereo partly drawn) | 37%
N#Cc1ccccc1Sc1ccccc1C(=O)N1CCOCC1 | 10%
CCOc1cccc(/C(O)=C2/C(=O)C(=O)N(Cc3ccco3)C2c2ccncc2)c1 (stereo not drawn) | -14%

Assay outcomes as filed in PubChem.

Some of the compounds tested; the hit share may differ from the screen's.
